Bioassay records from PubChem BioAssay.
Sa ugtP lethal: growth inhibition of ugtP-null S. aureus, primary screen, RN4220 ugtP deletion, OD600 | growth inhibition, % (test concentration not listed) | AID 1259309, 2017 | 16 h; some inactives read as strong as hits | 330,000 tested, 0.54% active;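 active means z-score under -3 and OD600 up to 0.15 on both plates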;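 further: plate controls were untreated wells for no effect and antibiotic for full effect; wells of about 80 µL received 100 nL stock; the first replicate is given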
PrP UTR inh: inhibition of PrP 5' UTR reporter expression. inhibition, % (no concentration beside the values). 340,000 tested, 0.35% active. cell-based PrP 5' UTR mRNA reporter, plate reader;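 active means every replicate at 50% or more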;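 further: 0 = median of the neutral control wells; tested in H4 reporter cells; numbers are from one replicate; inactives centre near -14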
Mtb hypoxia inh: PubChem AID 1159583; M. tuberculosis hypoxia-regulated fluorescent reporter, fluorescence; fluorescence inhibition, % (no concentration beside the values); 300,000 tested, 0.1% active;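 active means 35 to 45% if threefold the growth effect, above 45% if 1.5-fold the growth effect; inactive means the rest, general growth blockers included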;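 further: wells of about 50 µL received 100 nL stock; 0% = vehicle wells and 100% = reference inhibitor wells; whole bacteria with a GFP reporter of the hypoxia response; strong numbers were not always called active; many hits fall short of the cut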
Autofluor counter: counter-screen for toxin protease inhibitors: compound fluorescence | 360,000 tested, 3.1% active | compound autofluorescence counterscreen, microsphere flow cytometry; active compounds read high | fluorescence intensity (no concentration beside the values);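 active means at least 3 SD above the mean of all compounds, about 16000 in these data; inconclusive means too few beads counted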;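 further: 100 nL of 1 mM stock went into each well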
Sa RN4220 lethal: growth inhibition of S. aureus RN4220, primary screen, OD600; inhibition, % (no concentration beside the values); 330,000 tested, 0.33% active; 16 h;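 active means z-score of -3 or lower and OD600 up to 0.18 on both plates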;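 further: plate controls were untreated cells for no effect and reference antibiotic for full effect; stock transfer was 100 nL into about 80 µL; one replicate is shown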
BJeLR viability: MLPCN primary cell-based screen for lethality selective to Ras in HRASV12 cells; AID 1554, 2009; 300,000 tested, 0.17% active; BJeLR (HRASV12) viability, CellTiter-Glo ATP luminescence, 48 h; reference of the scale not given here; inhibition, % (test concentration not listed);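 active means replicate mean above 50%; inconclusive means above 50% but judged a plate artefact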;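 further: 50 nL library stock added to about 25 µL; numbers are from one replicate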
Mtb hypoxia inh growth: second read-out of Mtb hypoxia inh, no call of its own (marks repeat the call); growth inhibition, %; measured here: M. tuberculosis growth (absorbance);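 0% = vehicle and 100% = reference antibiotic; read after six days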
Starred values were filed as active, the others as inactive; ? = inconclusive; nt = no result given; & = joins results of further samples. Compounds were not picked by outcome (roughly 4% active in at least one column).

SMILES	Sa ugtP lethal	PrP UTR inh	Mtb hypoxia inh	Mtb hypoxia inh growth	Autofluor counter	Sa RN4220 lethal	BJeLR viability
CC(=O)N1CN(C2CC(C)(C)NC(C)(C)C2)Cc2c1sc1c2CCCC1	1	-11	11	1	2089	4.4	2
CCCn1c(C)c(C(=O)OCC)c(O)c(-c2ccccc2)c1=O	5	nt	11	0	4411	5.7	0
NS(=O)(=O)c1ccc(CNC(=S)NC(=O)c2ccco2)cc1	-1	-2	4	9	4272	-0.4	nt
CN1CCC(n2[nH]c(-c3ccccc3)c(Cc3ccccc3)c2=O)CC1	3	-7	13	13	4106	1.6	nt
C=CCn1c(N)cc(=O)nc1SCC(=O)Nc1ccc(C(=O)OCC)cc1	11	-3	-4	-1	3190	1.9	-7
C=CCn1c(O)c(C=Nc2c(C)n(C)n(-c3ccccc3)c2=O)c(=O)[nH]c1=O	-7	-24	1	11	3513	2.1	4
Cc1ccc(CN2CCN(/N=C\C(Br)=C\c3ccccc3)CC2)cc1	nt	-14	nt	nt	2615	nt	-3
Cc1cc(-c2c(C)[nH]n(-c3ccccc3)c2=O)n[nH]1	-1	-13	-3	12	1904	8.3	-4
Nn1c(Cc2ccccc2F)nnc1SCC(=O)Nc1cccc(S(=O)(=O)NC2=NCCCCC2)c1	7	-17	-7	3	4309	11	5
COC(=O)c1nc2ccccn2c1F	0	-9	1	-2	3936	-1.7	-4
CC(C)(C)NC(=O)C(c1ccccn1)N(C(=O)C1CSC(=O)C1)c1ccc(F)cc1 (stereo unspecified)	0	-28	-2	4	9808	-0.1	-3
COc1ccccc1CNC(=O)CCC(=O)N1C[C@H]2C[C@@H](C1)c1cccc(=O)n1C2	4	-15	nt	nt	6259	2.0	-1
Cc1ccc(N2CC(C(=O)NCc3n[nH]c(=O)c4ccccc34)CC2=O)cc1 (stereo unspecified)	4	-7	-2	0	5521	1.3	2
CC1CCc2[nH]c3ccc(C(=O)N(C)CC(=O)Nc4ccccc4Br)cc3c2C1 (stereo unspecified)	-1	-6	1	-6	?	-2.9	-6
CCOC(=O)C1CC=C(Cl)CC1C(=O)Nc1nccs1 (stereo unspecified)	5	-16	1	1	11187	0.5	-19
Cc1ccc(Nc2ncnc(N)n2)cc1C	1	-24	1	5	2464	3.0	-3
CSc1ncc(C(=O)O)n1-c1ccc(F)cc1	3	-21	9	3	3478	-1.7	-8
Cc1cccc(N2C(=O)CC(N(O)c3ccccc3)C2=O)c1 (stereo unspecified)	2	-15	12	9	2961	-2.1	-3
COc1ccc(CN(C)C(=O)c2cc(-c3ccccc3)nc3ccc(C)cc23)c(OC)c1OC	0	-35	9	4	5363	3.9	6
Cc1cc(C)cc(C(=O)N2CCC3(CC2)NCCc2[nH]cnc23)c1	1	-10	-8	-11	4838	5.7	-7
C=CCN(C(=O)CCc1ccccc1OC)c1nc(-c2ccc(S(C)(=O)=O)cc2)cs1	nt	-26	nt	nt	5456	nt	-3
O=S1(=O)c2cccc3cccc(c23)N1Cc1ccc(-c2nnco2)cc1	-5	4	17	2	3032	-8.9	-2
COc1ccc(C(=O)NCc2ccccc2)cc1Br	8	-20	3	3	2561	2.5	-9
CN(C)S(=O)(=O)c1ccc2c(c1)nc(CCC(=O)NCC1CCCCC1)n2C	2	-27	6	1	5528	-0.3	2
COC(=O)c1ccc(CSc2ncnc3sc(C)c(C)c23)o1	7	-46	11	5	9792	7.9	-8

More records follow.
SMILES	Sa ugtP lethal	PrP UTR inh	Mtb hypoxia inh	Mtb hypoxia inh growth	Autofluor counter	Sa RN4220 lethal	BJeLR viability
COc1ccc(C(=O)Nc2ccccc2C(=O)O)cc1Cl	1	-11	9	17	2422	24	-14
O=C(CSc1nc(O)c(C2CCCCC2)c(=O)[nH]1)Nc1ccccc1Cl	11	-8	-6	9	3633	3.5	-3
C[N+]1(CCCCCCC(=O)/C=N/O)CCCCCC1	nt	-18	nt	nt	8884	nt	-6
CCCCCCCCCCCCCCCC[n+]1ccc(C=NO)cc1	101*	nt	12	22	nt	101*	nt
COC(=O)c1ccc(CNC(=O)C2CCC(=O)N(CCCc3ccccc3)C2)cc1 (stereo unspecified)	0	-2	-1	1	4692	-8.4	-9
O=C(COC(=O)Cc1ccccc1F)NCCc1ccccc1	4	-35	14	3	3963	7.2	nt
CN1CCN(S(=O)(=O)c2cccc(C(=O)Nc3ccccc3N3CCOCC3)c2)CC1	8	8	12	5	3149	3.6	3
CC(CC(=O)N(C(C)C)C(C)C)=NNC(=O)COc1ccc(Cl)cc1Cl	-16	nt	-2	6	nt	3.3	nt
CC1CC(=O)N(c2ccc(N(C)Cc3ccccc3)c([N+](=O)[O-])c2)C1=O (stereo unspecified)	7	1	15	-1	5393	2.8	15
COc1ccc(C(NC(=O)CC(C)C)c2c(O)ccc3ccccc23)cc1 (stereo unspecified)	11	6	-5	-3	3315	-0.2	4
CCN(c1ccc(C(O)(C(=O)OC)C(F)(F)F)cc1)S(=O)(=O)c1ccccc1 (stereo unspecified)	4	-5	10	7	3728	10	-3
COC(=O)Cn1nc(-c2ccc(C)cc2)c2ccccc2c1=O	12	-2	17	2	4911	4.9	1
COc1ccc2oc(C(=O)OCC(=O)N(C)c3ccccc3)c(C)c2c1	7	-30	-4	-4	5689	3.7	3
O=C(Nc1cc(C(F)(F)F)ccc1Cl)C(=O)N1CCCCC1	6	-74	12	-5	2888	2.4	7
Brc1ccc(-c2nc3ccccc3s2)s1	15	-56	3	8	2878	-2.0	-15
Cn1nccc1C(=O)N1CCCC(C(=O)c2ccc(Oc3ccccc3)cc2)C1 (stereo unspecified)	-2	4	-8	7	5569	1.8	8
CC(C)(C)C(=O)NC(=S)N1CCOCC1	0	-18	3	1	2567	-3.0	-1
CC(C)(C)c1ccc(S(=O)(=O)CC(O)CSc2nc3c(cc2C#N)CCCC3)cc1 (stereo unspecified)	nt	-12	nt	nt	3980	nt	3
Cc1cccc(N2CCN(C(=O)C3CCCN(S(=O)(=O)c4cnc[nH]4)C3)CC2C)c1 (stereo unspecified)	8	-2	1	-2	?	5.7	-2
N#Cc1ccsc1NC(=O)CN1CCN(c2ccc(O)cc2)CC1	-2	-34	9	6	2006	2.7	-1
O=S(=O)(Nc1cccc(-c2ccc3nncn3n2)c1)c1ccccc1F	16	-15	6	0	?	6.6	1
CCOc1ccc(NC(=S)Nc2cccc3ccccc23)cc1	7	-14	18	17	5166	3.4	5
Cc1ccc(-c2nnc(NCc3nc4ccccc4[nH]3)c3ccccc23)cc1S(=O)(=O)N1CCCCC1	-9	-12	2	5	11297	-4.5	-3
O=C(NN=Cc1ccc([N+](=O)[O-])cc1)c1cc(C2CC2)nc2ccccc12	8	nt	2	14	nt	2.4	nt
COc1ccc2[nH]c(=O)c(CN(Cc3ccco3)Cc3nnnn3Cc3ccccc3)cc2c1	-4	-7	3	3	5773	4.6	10

Next part
SMILES	Sa ugtP lethal	PrP UTR inh	Mtb hypoxia inh	Mtb hypoxia inh growth	Autofluor counter	Sa RN4220 lethal	BJeLR viability
Cc1ccc(-n2cc(CN3CCNC(=O)CC3)c(-c3cccc(C)c3)n2)cc1	2	-29	-5	0	4289	1.9	-1
CCCN(CCC)S(=O)(=O)c1ccc(C(=O)Nc2c(C)n(C)n(-c3ccccc3)c2=O)cc1	6	-7	8	4	4198	4.0	8
CC(=O)NC1C(Oc2ccccc2C)OC(CO)C(O)C1O (stereo unspecified)	1	-2	14	3	4628	3.0	4
CC1CCc2c(sc3ncnc(SCC(=O)c4ccccc4)c23)C1 (stereo unspecified)	1	-14	nt	nt	4564	1.1	-11
COC(=O)C1=C(c2cc3ccccc3o2)CC2CCC1N2C(=O)N1CCC(O)CC1 (stereo unspecified)	0	nt	9	10	nt	5.4	nt
CC(Sc1n[nH]c(-c2ccccc2)n1)C(=O)c1c(N)n(C)c(=O)n(C)c1=O (stereo unspecified)	8	-11	6	10	?	4.5	-4
Cc1nc2cc3c(cc2c(C)c1C(=O)OC(C)C)OCO3	0	-33	12	2	2176	6.1	-3
C=CCNc1nc(-c2ccccc2)c(C(=O)OCC)cc1C#N	9	-21	nt	nt	5596	-7.2	13
Clc1ccc(-c2nc3cnccn3c2Nc2ccc3c(c2)OCO3)cc1	-5	4	3	15	4277	-14	-3
CCC(C)Cc1cn(C(CCCCN)C(=O)NCCCCCCCCCCC(=O)N2CCNCC2)nn1 (stereo unspecified)	1	nt	16	14	nt	3.4	nt
CCN1C(=O)CSC1=NC1C2CC3CC(C2)CC1C3 (stereo unspecified)	91*	-9	nt	nt	2352	7.9	-2
O=C(NCCN1CCCCC1)Nc1cccc(C(F)(F)F)c1	5	-43	-2	13	4077	-3.4	-7
Fc1ccc(COc2ccc(Br)cc2CNCC2CCCO2)cc1 (stereo unspecified)	1	-22	9	5	4613	-17	-6
O=C(NNC(=O)c1cc2ccccc2cc1O)NC1CCCCC1	1	-17	-1	2	6394	-0.7	3
O=S1(=O)CC(NCc2ccccc2)C(Nc2ccccc2)C1 (stereo unspecified)	12	-4	12	5	9396	3.7	15
C=CCN1C(=O)/C(=C\C(C)=C\c2ccccc2)SC1=S	nt	-10	nt	nt	3690	nt	-2
COc1cc(NC(=O)COc2cccc(C)c2C)ccc1NC(=O)c1ccco1	-9	-40	17	5	3720	12	1
C=CCC(CC(=O)N(CCO)Cc1ccccc1)C(=O)NC(C)COC(=O)C(CC=C)CC(=O)OC(C)(C)C (stereo unspecified)	6&4&-14	nt	2&15&7	6&9&5	nt	2.4&4.0&5.4	nt
CC(C)CCN1CCN(Cc2cccn2-c2ccccn2)CC1CCO (stereo unspecified)	10	-12	10	0	2644	1.4	-4
CC1CN(C(C)CO)C(=O)c2cc(NS(=O)(=O)c3cn(C)cn3)ccc2OC1CN(C)C(=O)Nc1ccccc1 (stereo unspecified)	0	nt	14	7	nt	3.9	nt
COC(=O)[C@@]1(Cc2ccc(OC)cc2)C2c3cc(C(=O)N(C)C)n(Cc4c(CO)[nH]cc(C)c4=O)c3CC2CN1C(=O)c1ccccc1 (stereo partly specified)	5	nt	5	18	nt	1.6	nt
CN(C)c1cccc2c1c(NS(=O)(=O)c1cn(C)cn1)nn2C	6	-2	1	3	6378	3.9	3
COc1ccc(-c2[nH]c(-c3cccc(OC)c3)nc2SCC(=O)NC2CCCC2)cc1	-2	-43	1	-3	6013	-10	9
CN(C(=O)Cn1c(=O)oc2cc(S(=O)(=O)N3CCCC3)ccc21)C1CCCCC1	2	-9	5	-5	5610	0.1	4
Cc1ccc(C(=O)Nc2cccc(-c3cn4ccccc4n3)c2)cc1	2	-20	-3	-10	4437	13	-2

Additional entries follow.
SMILES	Sa ugtP lethal	PrP UTR inh	Mtb hypoxia inh	Mtb hypoxia inh growth	Autofluor counter	Sa RN4220 lethal	BJeLR viability
COC(=O)c1cc(NC(=O)C2COc3ccccc3O2)cc(C(=O)OC)c1 (stereo unspecified)	-12	-16	-5	-2	7917	0.5	-4
COC(=O)c1cccc(Cn2c(Cl)c(/C=N/Nc3ccccc3C)sc2=O)c1	nt	-23	nt	nt	10856	nt	6
CCC(=O)Oc1ccc(C(CC)C(CC)c2ccc(OC(=O)CC)cc2)cc1 (stereo unspecified)	nt	58*	nt	nt	4261	nt	-5
Cc1ccc(SC[C@H](c2ccccc2)N2CCN(C)CCC2=O)cc1	nt	-35	nt	nt	4670	nt	-2
CCNC(=S)N(CCc1c(C)[nH]c2ccc(F)cc12)Cc1cccnc1	-6	-6	4	6	3818	7.6	-8
CCOC(=O)c1cccc(S(=O)(=O)N2CCCC2)c1	9	-7	-1	-5	2433	3.3	-4
CO/N=C/C(=N\Nc1cc(OC)cc(OC)c1)C(=O)c1ccccc1	nt	-6	nt	nt	4988	nt	-1
COc1ccc(S(=O)(=O)NC2CC(C)(C)NC(C)(C)C2)c2ccccc12	-5	-7	-3	6	?	-1.3	-5

One compound at a time, from the list above. Order of values: Sa ugtP lethal | PrP UTR inh | Mtb hypoxia inh | Mtb hypoxia inh growth | Autofluor counter | Sa RN4220 lethal | BJeLR viability
Shown for CCC(=O)Oc1ccc(C(CC)C(CC)c2ccc(OC(=O)CC)cc2)cc1 (stereo unspecified) → nt | 58* | nt | nt | 4261 | nt | -5
Shown for N#Cc1ccsc1NC(=O)CN1CCN(c2ccc(O)cc2)CC1 → -2 | -34 | 9 | 6 | 2006 | 2.7 | -1
Shown for CN(C)S(=O)(=O)c1ccc2c(c1)nc(CCC(=O)NCC1CCCCC1)n2C → 2 | -27 | 6 | 1 | 5528 | -0.3 | 2
Shown for CC1CCc2c(sc3ncnc(SCC(=O)c4ccccc4)c23)C1 (stereo unspecified) → 1 | -14 | nt | nt | 4564 | 1.1 | -11
